Compound activity: PubChem, several laboratories
RanGTP-Impb inh – inhibitors of RanGTP-importin-beta interaction, primary screen, biochemical, FRET, CFP-Ran, YFP-importin-beta, homogeneous. cell-free CFP-Ran/YFP-importin-beta FRET ratio. inhibition, % (no concentration beside the values). AID 2216. 300,000 tested, 1.1% active;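 active = most replicates above 15%; inconclusive = exactly half above 15%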;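 also: 0% = DMSO wells and 100% = Ran loaded with GDP instead of GTP; wells of about 40 µL received 100 nL stock; the first replicate is given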
Calb FLC – affects C. albicans growth with fluconazole; C. albicans CaCi-2 (fluconazole-resistant clinical isolate) + fluconazole, Alamar Blue growth, 48 h; 300,000 tested, 0.57% active; growth inhibition, % (test concentration not listed);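 active = most replicates above 75%; inconclusive = exactly half above 75%; inactive = most below 75%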;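 also: all wells also contain fluconazole at 8 µg/ml as a sub-toxic cotreatment; 0% = median of DMSO wells and 100% = median of geldanamycin control wells; wells of about 8 µL received 7.5 nL stock; the first replicate is given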
A1 inh – inhibitors of the anti-apoptotic protein A1, read as caspase activation; MEF A1-2A-BIM cells, Caspase-Glo 3/7 luminescence, 3 h; percent of clofoctol response, vehicle zero; caspase activation, % (test concentration not listed); 330,000 tested, 0.066% active; AID 2462;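 active = over half of replicate activation scores above 10%, or exactly half above 10 with the replicate mean above 10; inconclusive = replicate mean below 10 yet half the replicates above 10; inactive = over half of replicates below 10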;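 also: wells of about 30 µL received 50 nL stock; many hits fall short of the cut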
Vif TR-FRET – HIV-1 Vif–A3G interaction blockers – biochemical, TR-FRET, GST-Vif 1-94, biotin-A3G peptide, dose response retest, primary screen (AID 1117319); 260,000 tested, 0.57% active; TR-FRET GST-Vif / biotin-A3G peptide binding; higher % means a stronger effect; test concentration not given here; strong numbers were not always called active; inhibition, %; hits with a dose series show IC50 in µM;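 active = above the screen mean plus three standard deviations and confirmed in dose response; inconclusive = results disagree or hit not tested in dose response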;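 also: Vif residues 1-94 fused to GST binding biotinylated APOBEC3G peptide 110-148; 0% = full assay without inhibitor and 100% = GST in place of GST-Vif; retest series ran down from 100 µM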
Beta cell apopt – blocks beta cell apoptosis. AID 435005. INS-1E cytokine-induced death, ATP luminescence, 48 h; percent of positive-control rescue, neutral wells zero. protection from apoptosis, % (concentration not given with the values). 300,000 tested, 0.8% active;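 active = all replicates at 75% or more, or half of them and the mean; inconclusive = half reach 75% but not the mean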;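 also: 0% = cytokine-treated negative control wells and 100% = positive control rescue; higher means more ATP so stronger rescue from cytokine killing; wells of about 40 µL received 100 nL stock; the first replicate is given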
LANA-H2B inh – blocks KSHV LANA binding to histone H2A/H2B. inhibition, % (concentration not given with the values). AID 2629. Q9QR71. cell-free LANA-H2A/H2B peptide, fluorescence polarization. 320,000 tested, 0.6% active; in the data active = inhibition mostly above about 10%, no sharp cut-off; inactive = mostly below about 6.7%;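 also: stock transfer was 7.5 nL into about 10 µL; 0% = median of vehicle wells and 100% = median of positive control wells; one replicate is shown; the record names a cut of 25% in any replicate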
T cruzi repl – T. cruzi replication inhibition. T. cruzi beta-gal in NIH3T3, luminescence, 90 h. 300,000 tested, 1.4% active. inhibition, % (no concentration beside the values);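 active = mean inhibition across valid replicates above about 55%, limit read from the data; inconclusive = mean below that limit but half or more replicates reach it; inactive = mean below it, under half of replicates reach it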;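 also: signal also drops with host cell toxicity which is not excluded here; 0% = plate median of DMSO wells and 100% = zero luminescence signal; higher percent means less beta-gal luminescence so fewer parasites; stock transfer was 50 nL into about 50 µL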
AF4-AF9 inh – inhibitors of human MLL-AF4/AF9 interaction. P42568. AlphaScreen, biotin-AF4 peptide binding to FLAG-AF9. inhibition, % at 10 µM. 350,000 tested, 0.47% active. AID 651704;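 active = every replicate reaching a set inhibition limit, whatever the replicate mean, cut at about 25% in these data; inconclusive = mean inhibition reaches that limit but some replicates miss it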;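 also: 0% = plate neutral control median and 100% = total signal loss; the record names both 10 and 1 µM as test concentration; the first replicate is given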
Target sequence (P42568 whole entry, looked up): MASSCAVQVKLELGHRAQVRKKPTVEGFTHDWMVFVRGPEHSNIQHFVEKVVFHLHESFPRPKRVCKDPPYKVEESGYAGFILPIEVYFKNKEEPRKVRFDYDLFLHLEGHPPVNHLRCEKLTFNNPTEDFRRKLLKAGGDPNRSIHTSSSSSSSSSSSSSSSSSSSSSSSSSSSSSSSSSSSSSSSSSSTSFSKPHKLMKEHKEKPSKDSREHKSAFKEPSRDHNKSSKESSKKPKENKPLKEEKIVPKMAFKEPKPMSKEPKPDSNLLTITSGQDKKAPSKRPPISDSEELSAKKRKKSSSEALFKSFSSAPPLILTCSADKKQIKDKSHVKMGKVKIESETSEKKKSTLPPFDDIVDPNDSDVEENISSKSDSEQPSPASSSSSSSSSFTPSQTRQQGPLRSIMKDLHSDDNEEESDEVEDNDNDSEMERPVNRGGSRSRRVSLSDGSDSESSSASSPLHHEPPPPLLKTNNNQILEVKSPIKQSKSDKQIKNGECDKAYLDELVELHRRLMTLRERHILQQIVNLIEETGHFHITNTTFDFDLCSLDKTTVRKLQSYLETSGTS
Starred values were filed as active, the others as inactive; & = joins results of further samples.

Screening O=c1oc2ccccc2c2nccnc12 returned RanGTP-Impb inh 1.6, Calb FLC 9, A1 inh 0.0, Vif TR-FRET 14%, Beta cell apopt -2, LANA-H2B inh 4.4 and T cruzi repl -16.
Screening Cc1ccnc(NC(=O)CCC(=O)N(CC(=O)NCc2ccccc2)c2ccc3c(c2)OCO3)c1 returned RanGTP-Impb inh 4.4, Calb FLC -9, A1 inh 1.1, Vif TR-FRET 12%, Beta cell apopt -4, LANA-H2B inh 1.8 and T cruzi repl 1.
For CCOc1ccc2nc(NC(=O)C3(C)CC3(Br)Br)sc2c1 (stereo not given) the results were RanGTP-Impb inh 6.2, Calb FLC 13, A1 inh -0.7, LANA-H2B inh -6.2, T cruzi repl 12 and AF4-AF9 inh 4.8.
Screening O=C(O)CCCc1nc(-c2ccccc2)no1 returned RanGTP-Impb inh inconclusive, Calb FLC 1, A1 inh 0.5, Vif TR-FRET 29%, Beta cell apopt 0, LANA-H2B inh -3.8 and T cruzi repl -14.
C=CCSc1nc(O)c(C2OC(=O)c3c2ccc(OC)c3OC)c(=O)n1-c1ccccc1 (stereo not given) was read as RanGTP-Impb inh 5.4, Calb FLC -1, A1 inh -0.7, Vif TR-FRET 2%, Beta cell apopt -7, LANA-H2B inh 5.3, T cruzi repl -15 and AF4-AF9 inh -2.5.
`CC(C)(C)NS(=O)(=O)c1ccc2[nH]c3c(c2c1)CCCCC3` gave RanGTP-Impb inh 7.4, Calb FLC 57, A1 inh -1.5, Vif TR-FRET -7%, Beta cell apopt -7, LANA-H2B inh -2.3, T cruzi repl 8 and AF4-AF9 inh 13.
Screening CCc1ccccc1N1C(=O)[C@@H]2Cc3ccccc3CN2C1=O returned RanGTP-Impb inh -3.8, Calb FLC -3, A1 inh 1.2, Vif TR-FRET 0%, Beta cell apopt 0, LANA-H2B inh 7.0, T cruzi repl -5 and AF4-AF9 inh 1.3.
`CC(C)(C)OC(=O)N1CCC(CNC(=O)c2ccc(F)cc2F)CC1` gave RanGTP-Impb inh 0.8, Calb FLC -6, A1 inh 0.6, Vif TR-FRET 20%, Beta cell apopt -9, LANA-H2B inh 2.7, T cruzi repl -4 and AF4-AF9 inh -5.3.
For COc1ccccc1N1CCN(Cc2nc(-c3ccc(F)cc3)oc2C)CC1 the results were RanGTP-Impb inh 3.0, Calb FLC -26, A1 inh -0.5, Vif TR-FRET -13%, Beta cell apopt 6, LANA-H2B inh 2.2, T cruzi repl 1 and AF4-AF9 inh 6.0.
Screening COC(=O)CC1C(=O)NCCN1C(=O)CSc1nc2ccccc2o1 (stereo not given) returned RanGTP-Impb inh 0.1, Calb FLC -6, A1 inh 0.2, Beta cell apopt -7, LANA-H2B inh -0.6, T cruzi repl 0 and AF4-AF9 inh -0.3.
`CC(=O)NN1C(=O)c2ccc3c4c(ccc(c24)C1=O)C(=O)N(NC(C)=O)C3=O` gave RanGTP-Impb inh 2.6, Calb FLC 3, A1 inh -0.8, Beta cell apopt 108*, LANA-H2B inh -1.9, T cruzi repl 5 and AF4-AF9 inh -1.0.
For CCOc1ccccc1NC(=O)N1CCCC1C(=O)Nc1ccc(NC(C)=O)cc1 (stereo not given) the results were RanGTP-Impb inh 10, Calb FLC 0, A1 inh 0.6, Vif TR-FRET -2%, Beta cell apopt 2, LANA-H2B inh -4.4 and T cruzi repl 10.
For COc1ccc(-c2ccc(SCc3ccccn3)nn2)cc1OC the results were RanGTP-Impb inh -0.5, Calb FLC 13, A1 inh -0.8, Vif TR-FRET -7%, Beta cell apopt -8, LANA-H2B inh 14, T cruzi repl 5 and AF4-AF9 inh -1.1.
For COc1ccc(NC(=O)C2CCCN(c3cnccn3)C2)c(OC)c1 (stereo not given) the results were RanGTP-Impb inh -0.1, Calb FLC -10, A1 inh -0.5, Vif TR-FRET -3%, Beta cell apopt -3, LANA-H2B inh -0.7, T cruzi repl 4 and AF4-AF9 inh 3.0.
COCCNC(=O)c1cc(-c2cccnc2)nc2ccc(Br)cc12 was read as RanGTP-Impb inh -0.4, Calb FLC 7, A1 inh 0.2, Vif TR-FRET -3%, Beta cell apopt -1, LANA-H2B inh -2.6 and T cruzi repl 3.
CC(C)(C)NC(=O)C(c1cccs1)N(C(=O)C(=O)NC1CCCC1)c1ccccc1F (stereo not given) was read as RanGTP-Impb inh -13, Calb FLC 22, A1 inh 0.4, Beta cell apopt -12, LANA-H2B inh -1.4, T cruzi repl -13 and AF4-AF9 inh -0.3.
Cc1ccc(C)c(NC(=S)N2CCCC2)c1 was read as RanGTP-Impb inh 0.9, Calb FLC -4, A1 inh -0.3, Vif TR-FRET -1%, Beta cell apopt -4, LANA-H2B inh 1.3, T cruzi repl -16 and AF4-AF9 inh -1.9.
Cc1cccc(C(=O)Nc2ccc(NC(=O)c3ccccc3)cc2)c1 was read as RanGTP-Impb inh 7.4, Calb FLC -3, A1 inh -1.6, Beta cell apopt 3, LANA-H2B inh 11, T cruzi repl 1 and AF4-AF9 inh -1.9.
Screening O=c1cc(O)nc(SCc2ccc(Cl)cc2)[nH]1 returned RanGTP-Impb inh -1.9, Calb FLC 10, A1 inh 0.5, Vif TR-FRET 10%, Beta cell apopt 0, LANA-H2B inh -0.3 and T cruzi repl -1.
Cn1c(=O)c2c(nc(NCCc3ccccc3)n2Cc2ccc(F)cc2)n(C)c1=O was read as RanGTP-Impb inh 4.2, Calb FLC 25, A1 inh 1.0, Vif TR-FRET -2%, Beta cell apopt 27, LANA-H2B inh -0.1, T cruzi repl 16 and AF4-AF9 inh 0.1.
`CC(NC(=O)Cn1c(=O)[nH]c2ccsc2c1=O)C12CC3CC(CC(C3)C1)C2` (stereo not given) gave RanGTP-Impb inh 8.2, Calb FLC 2, A1 inh 0.4, Vif TR-FRET -23%, Beta cell apopt -5, LANA-H2B inh 0.2 and T cruzi repl 10.
Screening CC(C)(C)c1cnnn1-c1ccc(-c2csc(N)n2)cc1 returned RanGTP-Impb inh 0.1, Calb FLC -37, A1 inh 1.9, Vif TR-FRET 3%, Beta cell apopt -8, LANA-H2B inh 0.4, T cruzi repl -9 and AF4-AF9 inh 2.8.
Screening CC(C)Cc1nnc(NC(=O)CCC(=O)N2CCN(Cc3ccc(Cl)cc3)CC2)s1 returned RanGTP-Impb inh 0.1, Calb FLC 4, A1 inh 0.3, Vif TR-FRET 0%, Beta cell apopt 0, LANA-H2B inh 1.2, T cruzi repl 38 and AF4-AF9 inh 1.5.
Screening CCn1c(SCC(=O)Nc2cccc(NC(=O)c3ccco3)c2)nnc1-c1cccs1 returned RanGTP-Impb inh 4.8, Calb FLC 1, A1 inh 0.4, Vif TR-FRET 7%&-8%, Beta cell apopt 1, LANA-H2B inh -0.9 and T cruzi repl 1.
`O=Cc1ccc(Oc2cc(-c3ccccc3)nc(-c3ccccc3)n2)cc1` gave RanGTP-Impb inh 2.9, Calb FLC 14, A1 inh -1.1, Vif TR-FRET -8%, Beta cell apopt 9, LANA-H2B inh -4.2 and T cruzi repl 25.
`CC(NC(=O)COC(=O)/C=C/c1ccc([N+](=O)[O-])cc1)c1ccccc1` (stereo not given) gave RanGTP-Impb inh 0.3, Calb FLC -8, A1 inh -0.9, Vif TR-FRET -4%, Beta cell apopt -2, LANA-H2B inh 4.6, T cruzi repl -6 and AF4-AF9 inh 3.7.
For O=C(Nc1ccc(-c2ccc3nncn3n2)cc1)C1CCCC1 the results were RanGTP-Impb inh -0.8, Calb FLC -1, A1 inh 0.8, Vif TR-FRET inconclusive, Beta cell apopt 3, LANA-H2B inh 0.6, T cruzi repl 7 and AF4-AF9 inh -2.3.
Cc1ccccc1C(=O)N1CCN(c2ccccn2)CC1 was read as RanGTP-Impb inh -1.6, Calb FLC -3, A1 inh -0.2, Vif TR-FRET -7%, Beta cell apopt -8, LANA-H2B inh -1.5 and T cruzi repl -11.
COc1ccc(-n2nc(C(N)=O)nc2-c2ccccc2)cc1 was read as RanGTP-Impb inh -3.8, Calb FLC -1, A1 inh 1.1, Vif TR-FRET 9%, LANA-H2B inh 1.1, T cruzi repl -7 and AF4-AF9 inh -3.2.
Screening Cc1cccc2[nH]c(CN(C)Cc3nc(CC4CC4)no3)nc12 returned RanGTP-Impb inh -5.0, Calb FLC 7, A1 inh -0.6, Vif TR-FRET 9%, Beta cell apopt -11, LANA-H2B inh -3.9, T cruzi repl -15 and AF4-AF9 inh -0.8.
`COc1ccc(N2CC(C(=O)N[C@H](C(=O)NC3CCCC3)C(C)C)CC2=O)cc1` (stereo not given in full) gave RanGTP-Impb inh 1.2, Calb FLC -4, A1 inh -0.7, Beta cell apopt -6, LANA-H2B inh -1.0, T cruzi repl -4 and AF4-AF9 inh 0.2.
Screening O=C(NCc1ccccc1)C(c1ccccn1)N(C(=O)c1csnn1)c1ccccc1F (stereo not given) returned RanGTP-Impb inh -9.4, Calb FLC -5, A1 inh 0.8, Vif TR-FRET inconclusive, Beta cell apopt -7, LANA-H2B inh 6.9, T cruzi repl 4 and AF4-AF9 inh 0.6.
Screening COc1ccc(N(C(C)C(=O)Nc2ccc(S(=O)(=O)N3CCCCC3)cc2)S(C)(=O)=O)cc1 (stereo not given) returned RanGTP-Impb inh 4.1, Calb FLC -18, A1 inh -0.8, Beta cell apopt -4, LANA-H2B inh -4.6, T cruzi repl 4 and AF4-AF9 inh 1.9.
Screening Cc1c(N2C(=O)/C(=C/c3cccc4ccccc34)SC2=S)c(=O)n(-c2ccccc2)n1C returned RanGTP-Impb inh 0.3, Calb FLC 8, A1 inh -0.6, Beta cell apopt -2, LANA-H2B inh 0.2 and T cruzi repl 7.
`CCNc1c(NC(=O)c2cccs2)c(=O)oc2ccccc12` gave RanGTP-Impb inh -1.2, Calb FLC -16, A1 inh 0.2, Beta cell apopt 3, LANA-H2B inh 1.3, T cruzi repl 4 and AF4-AF9 inh 9.0.
`CC(C)C(=O)NC(=S)N(Cc1ccccc1)Cc1ccccc1` gave RanGTP-Impb inh -3.1, Calb FLC inconclusive, A1 inh 1.8, Beta cell apopt -1, LANA-H2B inh 1.3, T cruzi repl -24 and AF4-AF9 inh 0.3.
`CCOC(=O)N/N=C/c1c(C)nn(-c2ccccc2Cl)c1Cl` gave RanGTP-Impb inh 1.1, Calb FLC 4, A1 inh 0.3, Vif TR-FRET 12%, Beta cell apopt -3, LANA-H2B inh 1.4 and T cruzi repl -13.
`O=C(CCc1nc2ccccc2c(=O)[nH]1)NNC(=O)c1cccc(Cl)c1` gave RanGTP-Impb inh 1.9, Calb FLC -5, A1 inh -0.1, Vif TR-FRET 0%, Beta cell apopt -5, LANA-H2B inh 2.5, T cruzi repl -3 and AF4-AF9 inh -0.6.
`O=C(NCCCn1ccnc1)c1cc2nc(-c3ccc(Br)cc3)cc(C(F)(F)F)n2n1` gave RanGTP-Impb inh -1.3, Calb FLC inconclusive, A1 inh -0.3, Vif TR-FRET -3%, Beta cell apopt 8, LANA-H2B inh 2.5 and T cruzi repl 9.
